Screening results from PubChem BioAssay.
PINK1 expr mod – PINK1 expression modulation. PINK1 immunofluorescence, high-content cytometry, 24 h. Potency, µM (highest dose often 76.6 µM), inactives show at the top dose activation (PINK1 increase), hits mostly activators. 410,000 tested, 0.2% active. AID 624263; active = well fitted activation curve with a large enough effect; inconclusive = small, poorly fitted or top-dose-only effect; inactive = flat fitted curve, though single readings scatter; cell line not stated here;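 note: potency is the fitted concentration of half-maximal effect; % of control where 0% means no effect; nearly all actives have a fitted effect of over 65% in size; a mitochondrial uncoupler was the plate control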
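Compound titrations (5 concentrations, 24 h) on a stable cell line; DMSO and CCCP controls. Endpoint: fixed-cell PINK1 immunofluorescence with mitochondrial, cell and nuclear markers, scanned by microplate cytometer.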
Six1-Eya2 blk – inhibitors of human Six1/Eya2 interaction. Q15475+O00167. AlphaScreen GST-Six1/His-Eya2 binding, biochemical; active compounds read low; control for the full effect not named in the record. activity change, % (test concentration not listed). 360,000 tested, 0.56% active; in the data active = activity change below about -65%; inconclusive = about -30% to -65%; inactive = above about -30%; note: % is set by controls: 0 for no effect and ±100 for the full control effect
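Compounds are tested against tagged Six1 and Eya2 proteins bridged by glutathione donor and nickel acceptor beads; after a one-hour incubation at 37 °C without light, AlphaScreen emission is recorded.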
TRPML1 ag – activates the human TRPML1 channel. 410,000 tested, 0.12% active. activation, % (test concentration not listed). TRPML1-expressing cells, Ca2+ dye fluorescence, FDSS; host cell line not named in the record; reference of the full effect not given here. Q9GZU1. AID 624414; in the data active = activation above about 50%; inconclusive = about 30% to 50%; inactive = below about 30%; note: 0% is about no effect; the text of the record puts the active cut at 80%
Target sequence (Q9GZU1 whole entry, looked up): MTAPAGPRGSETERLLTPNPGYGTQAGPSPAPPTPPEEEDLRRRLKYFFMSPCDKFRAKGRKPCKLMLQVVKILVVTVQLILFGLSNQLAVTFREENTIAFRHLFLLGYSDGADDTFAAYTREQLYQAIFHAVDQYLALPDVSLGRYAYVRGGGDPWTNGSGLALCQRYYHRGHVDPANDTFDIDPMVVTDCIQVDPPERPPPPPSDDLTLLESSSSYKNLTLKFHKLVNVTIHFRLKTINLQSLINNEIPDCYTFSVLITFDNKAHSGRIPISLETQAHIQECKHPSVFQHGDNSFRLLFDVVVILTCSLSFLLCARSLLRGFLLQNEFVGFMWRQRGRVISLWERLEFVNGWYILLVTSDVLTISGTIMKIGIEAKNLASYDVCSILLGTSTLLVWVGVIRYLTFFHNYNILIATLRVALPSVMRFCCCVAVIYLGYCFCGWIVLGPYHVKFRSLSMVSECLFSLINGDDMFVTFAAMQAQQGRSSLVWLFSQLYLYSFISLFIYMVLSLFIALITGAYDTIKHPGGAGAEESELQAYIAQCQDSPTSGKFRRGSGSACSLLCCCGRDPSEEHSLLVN
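Cells: TRPML1-DL, 1X Tet inducer, ~16 h at 37 degrees C/5% CO2. Dye: ABD Ca8 no-wash + quencher, 45-90 min RT. Read: 10 s baseline, compound add, 110 s agonist phase; 54-4 EC80 (4uM final), 110 s antagonist phase.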
CtBP-E1A blk – CtBP/E1A binding inhibition. activity change, % (concentration not given with the values). 340,000 tested, 0.49% active. AlphaScreen GST-E1A/His-CtBP binding, 1536-well; active compounds read low; control for the full effect not named in the record; in the data active means activity change below about -65%; inconclusive means about -30% to -65%; inactive means above about -30%; note: % is set by controls: 0 for no effect and ±100 for the full control effect
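Steps: dispense buffer (Tris pH 8.0, NaCl 300 mM, TCEP 1 mM, BSA, Tween 20); add 5X protein mix (GST-E1A, His-CtBP, 125 nM each); pin 23 nL compound; 2 h at 37 °C, dark; add 5X beads (50 ug/mL); 1 h; read.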
D2 ag – human D2 receptor agonism in beta-arrestin assay; P14416; DiscoveRx PathHunter D2 beta-arrestin, luminescence, 90 min; 100% = 57 uM dopamine signal; activation, % (no concentration beside the values); 360,000 tested, 0.084% active; AID 624465; in the data active = activation above about 40%; inconclusive = about 15% to 40%; inactive = below about 15%; note: compound concentration not given in the record; the text of the record calls up to 30% inactive
Target sequence (P14416 whole entry, looked up): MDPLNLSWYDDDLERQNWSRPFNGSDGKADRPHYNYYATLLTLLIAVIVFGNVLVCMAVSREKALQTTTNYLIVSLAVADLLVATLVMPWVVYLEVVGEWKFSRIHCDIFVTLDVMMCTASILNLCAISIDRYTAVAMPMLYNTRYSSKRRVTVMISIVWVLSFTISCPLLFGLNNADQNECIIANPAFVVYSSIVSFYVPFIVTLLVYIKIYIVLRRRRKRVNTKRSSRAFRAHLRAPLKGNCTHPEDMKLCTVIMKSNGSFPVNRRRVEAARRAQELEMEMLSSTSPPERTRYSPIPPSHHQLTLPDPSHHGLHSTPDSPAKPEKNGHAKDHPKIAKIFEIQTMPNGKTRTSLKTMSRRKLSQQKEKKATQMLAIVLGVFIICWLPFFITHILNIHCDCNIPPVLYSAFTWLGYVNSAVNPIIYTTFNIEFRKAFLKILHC
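DiscoveRx PathHunter D2 beta-arrestin cells (2,100/well) attached overnight, then compound-stimulated 90 min at 37 C in HBSS/10 mM HEPES/0.1% Tween-20 buffer; beta-galactosidase complementation read by luminescence after 1 h at ambient temperature. Dopamine 57 uM final (EC100) as control.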
TRPML1 blocker – blocks the human TRPML1 channel. 390,000 tested, 0.02% active. Q9GZU1. TRPML1-inducible cells, Ca2+ dye fluorescence, FDSS; active compounds read low; inhibition of EC80 agonist-evoked calcium signal. activity change, negative = inhibition, % (no concentration beside the values); in the data active means activity change below about -50%; inconclusive means about -30% to -50%; inactive means above about -30%;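 note: stimulus is agonist 54-4 at its EC80 concentration; % is set by controls: 0 for no effect and ±100 for the full control effect; compound concentration not given in the record; the text of the record puts the active cut at -80%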
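TRPML1-DL cells, Tet-induced overnight (~16 h, 37 °C) at 1,500 cells/well, were loaded with Ca8 no-wash dye plus quencher for 45-90 min at room temperature. Compounds were pinned during FDSS kinetic reading; agonist 54-4 at EC80 (4 uM final) then added.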
Active calls of the source: *; ? = inconclusive; · = no result given; [ ] = remark or other dose. An unsorted share of the library; 1% or so of the library scored in one or more.

SMILES	PINK1 expr mod	Six1-Eya2 blk	TRPML1 ag	CtBP-E1A blk	D2 ag	TRPML1 blocker
CC1CCc2c(sc(NC(=O)C(=O)NCc3ccco3)c2C#N)C1 (centres undefined)	0.4%[38.3 µM]	-2.9	3.2	-0.2	-3.0	-4.9
Cc1occc(=O)c1OCc1ccccc1	0.1%	4.2	-0.4	-17.6	4.2	1.2
Cc1ccccc1OCCCCn1nnc2sc3c(c2c1=O)CCC(C)C3 (centres undefined)	1.9%	·	2.5	·	·	-21.8
CCOC(=O)C1(CC2CC2)CCN(Cc2ccc(C(=O)OC)cc2)CC1	6.6%	3.3	0.6	·	-2.2	27.3
COc1cccc(S(=O)(=O)N(C)C[C@H]2OCc3cnnn3CCCC(=O)N([C@@H](C)CO)C[C@@H]2C)c1	3.3%	-13.0	-0.3	-12.4	-10.4	4.4
CCN(CCc1ccccc1)c1ccc2c(c1)C1CC2CCN1Cc1ccccc1 (centres undefined)	?	-25.6	2.2	-11.6	-7.4	38.5
Cc1ccc(C(=O)NC(=O)CSc2nnc(C)s2)cc1	1.0%	-0.5	0.1	2.9	-1.5	1.2
CC(C)OCCCNc1nc(-c2ccccc2)nc2ccccc12	12.9%	6.4	0.8	·	6.7	-2.2
CC1(C)CC(=O)C(C(O)c2ccccc2)C(C)(C)N1 (centres undefined)	1.8%	12.6	0.3	1.5	-1.5	-14.2
Nc1cnc(CNc2ccccc2Cl)cn1	2.3%	-2.0	0.9	-1.3	-1.6	31.1
CC(=O)CSc1nc(N(C)C)nc(N(C)C)n1	-0.8%	-1.5	0.0	-0.8	-4.5	10.3
O=C(COC(=O)c1cccc(S(=O)(=O)N2CCOCC2)c1)NCc1ccc2c(c1)OCO2	-0.3%	-5.3	-0.6	4.2	-1.8	22.1

An excerpt of these results, with two lines to a compound:
Sequence of screens – PINK1 expr mod | Six1-Eya2 blk | TRPML1 ag | CtBP-E1A blk | D2 ag | TRPML1 blocker
> O=C(COC(=O)c1cccc(S(=O)(=O)N2CCOCC2)c1)NCc1ccc2c(c1)OCO2
    -0.3% | -5.3 | -0.6 | 4.2 | -1.8 | 22.1
> Nc1cnc(CNc2ccccc2Cl)cn1
    2.3% | -2.0 | 0.9 | -1.3 | -1.6 | 31.1

Next part
SMILES	PINK1 expr mod	Six1-Eya2 blk	TRPML1 ag	CtBP-E1A blk	D2 ag	TRPML1 blocker
O=C(Nc1ccc(CN2CCS(=O)(=O)CC2)cc1)c1ccc(C(F)(F)F)cc1	1.6%	-3.7	-0.3	9.5	8.7	16.2
COc1ccc(OC)c(COC(=O)c2cccc(S(=O)(=O)N3CCCCC3)c2)c1	-1.0%	-1.7	-0.8	0.0	-4.5	34.4
COc1ccc(C2C(C(=O)Nc3cccc(C)n3)c3ccccc3C(=O)N2C)cc1OC (centres undefined)	7.8%	-2.4	-0.3	8.3	-3.0	5.6
COc1cc(Cl)c(C)cc1NC(=O)c1ccc2c(Cl)c3c(nc2c1)CCC3	1.3%	·	-0.2	·	·	-11.3
Cc1cc(C)cc(OCC(O)CN2CCC(CN3C(=O)c4cccc5cccc(c45)C3=O)CC2)c1 (centres undefined)	-1.2%	-16.6	·	?	-4.2	·
COc1ccc(/C=C/C(=O)N2CCN(c3ccccn3)CC2)cc1OC	-0.4%	-6.3	-0.6	-5.2	3.3	7.8
Cn1c(=O)c2c(n3ncnc13)NC(=O)CC2c1cccc(F)c1 (centres undefined)	-0.8%	·	0.1	·	·	-2.5
O=C(COc1ccc(Oc2ccccc2)cc1)NC1CCS(=O)(=O)C1 (centres undefined)	-2.5%	3.7	-0.2	5.4	0.0	10.6
CN(CC(=O)Nc1cccc(F)c1)C(=O)CCCc1cccs1	-2.2%	2.7	-0.3	15.5	-0.8	4.3
O=C(NC1CCCC1)c1sc(=S)n2c1[nH]c(=O)c1ccccc12	31.6µM*	-17.8	18.1	-20.1	-1.4	9.5
Cc1ccc2c(c1)-c1cc(C)nn1C(c1cc(Br)ccc1O)N2 (centres undefined)	11.8%	·	-0.9	·	·	-3.4
Oc1ccccc1C1C=C(c2ccc3c(c2)OCO3)NC(c2cccc(F)c2)N1 (centres undefined)	-0.8%	·	0.8	·	·	19.8
O=C(COC(=O)/C=C/c1cccc(Cl)c1Cl)Nc1ccc2[nH]c(=O)[nH]c2c1	-2.3%	-7.1	-0.6	?	1.7	-13.2
O=C1CCc2cc(NS(=O)(=O)c3ccccc3)cc3c2N1CCC3	0.9%	-20.4	2.2	?	-0.1	-19.7
O=C(N/N=C/C(Br)=C/c1ccccc1)c1cccnc1	5.9%	?	0.4	?	-1.5	6.3
COc1ccc(N2CCC(CNC(=S)Nc3ccc(C)cc3C)C2)cc1 (centres undefined)	16.3%	?	0.8	-14.7	-3.6	2.6
O=C(CSCc1c(Cl)cccc1Cl)Nc1ccc2c(c1)OCCO2	2.2%	1.0	2.8	-10.5	-1.8	48.2
Cc1cccc(NC(=O)CSc2nc3ccc(NC(=O)COc4ccc(Cl)cc4)cc3s2)c1	4.4%	·	2.4	·	·	62.5
Cc1cccc(NC(=O)CN2CCN(C(=O)c3ccc(OCc4cn5ccccc5n4)cc3)CC2)c1C	-0.4%	-1.0	0.8	-2.9	1.7	-0.4
C=CCn1nc2n(c1=O)-c1ccccc1SC2	0.4%	6.3	-1.0	·	-1.8	-2.4
O=C(COc1ccccc1)NC(=S)Nc1cccc(NC(=O)c2ccccc2Cl)c1	6.9%	-21.3	0.3	-7.6	-3.4	0.2
CCO[C@H]1OC(C(=O)NC2CC2)=C[C@@H](C2CC2)[C@@H]1CCCO	1.2%	9.1	-0.2	7.8	-0.7	7.0
COc1ccc(CNC(=O)C2Cc3cc(S(=O)(=O)N4CCCC4)ccc3N2C(C)=O)c(OC)c1 (centres undefined)	-0.9%	0.5	0.2	-1.4	-7.5	12.9
N#Cc1ccc(S(=O)(=O)NCC(=O)OCC(=O)NCCc2ccccc2)cc1	-0.6%	-0.1	-0.7	-3.7	-2.2	3.8
Cc1nnc(SCC(=O)N(C(C)C)C(C)C)[nH]c1=O	-0.5%	2.1	-0.2	-11.3	-1.8	14.1
CCCOc1ccc(CNC(=O)c2ccc3c(c2)N(Cc2ccccc2)CCS3)cc1	1.4%	·	3.1	·	·	47.6
C/C=C(\C)C(=O)NCCN1C2=NC[C@H](Cc3ccccc3)N2C[C@@H]1Cc1ccc(OC)cc1	1.4%	-13.9	-0.5	-6.6	-3.2	-0.1
COc1ccc(C(=O)N(c2ccccc2)c2nccc3ccccc23)cc1OC	-1.2%	-2.2	-0.6	-1.1	-1.1	16.9
Cn1c(=O)c(C(=O)CN2CCCCC2)c(N)n(Cc2ccccc2)c1=O	0.5%	0.5	-0.6	6.4	-1.6	4.6
Fc1ccc(-c2ccc(-c3nn4c(-c5ccco5)nnc4s3)o2)cc1	?	-21.9	0.1	-21.9	-4.5	38.2
COc1ccc(N2CC(C(=O)OCC(=O)c3ccc(C)cc3)CC2=O)cc1 (centres undefined)	-1.0%	5.2	1.3	·	-3.6	31.6
COc1ccc(-c2cc(=O)oc3cc(O)ccc23)cc1	-1.7%	9.3	0.3	3.8	5.6	-0.4
COc1ccc(N2C(=O)C(Cl)=C(Oc3cccc(OC)c3)C2=O)cc1	5.2%	-21.6	1.7	1.1	-6.5	-3.0
COC(=O)c1cccc(NC(=O)c2cccnc2)c1	1.8%	-0.4	-1.4	1.4	-7.6	19.7
O=C(Cn1nnc(-c2cccs2)n1)NNC(=O)c1ccccc1Cl	-0.7%	-7.1	-0.9	2.4	-2.8	6.2
O=C(O)CN=C(NS(=O)(=O)c1ccc(Cl)cc1)c1ccccc1	-0.6%	-1.3	0.8	-9.3	-1.8	-20.8
Cc1cc(NC(=O)CSCC(=O)N2CCN(c3cccc(C)c3C)CC2)no1	1.7%	0.0	-0.2	6.4	7.4	-7.0
CCn1c(=O)cc(OCC(=O)N2CCN(c3ccc(OC)cc3)CC2)c2ccccc21	2.2%	·	-0.8	·	·	-12.2
O=C(NC(=S)Nc1ccc(Cl)c(C(=O)O)c1)c1cncc(Br)c1	0.6%	0.4	2.1	0.2	-10.8	-20.0
COc1ccccc1-c1noc(CCCC(=O)Nc2ccc(C(N)=O)cc2)n1	-0.1%	-8.5	1.2	-5.8	-3.4	-0.2
COc1ccc(OC)c(NC(=O)C2(C)CCN2C(=O)C2(c3ccccc3)CCCC2)c1 (centres undefined)	-0.2%	-19.8	-0.6	-14.3	-3.8	8.4
CCN1C(=O)[C@@H]2[C@@H](c3ccc(-c4ccc(F)cc4)cc3)N3CCCC[C@@]3(C(=O)OC)[C@@H]2C1=O	4.6%	-9.2	1.1	-3.8	-6.7	63.4
COc1cc2nc(CN(C)Cc3ccc(C(C)(C)C)cc3)[nH]c(=O)c2cc1OC	2.4%	-1.1	1.6	·	-3.6	0.6
Cc1cc(=O)oc2cc(OCC3CC(c4ccc(Br)cc4)=NO3)ccc12 (centres undefined)	11.6%[38.3 µM]	-0.7	-0.4	3.8	-0.5	-0.7
COc1ccc(-c2cc(=O)oc3c(C)c(O)ccc23)cc1	-0.7%	-4.6	1.5	·	6.6	10.4
O=C1CCCC2(O)C1C(c1cccc(Br)c1)NC(=O)N2Cc1ccccc1 (centres undefined)	0.2%	-5.4	0.2	1.4	-0.7	4.7
CCC(C)(C)NC(=O)C(c1cccn1C)N(Cc1ccc(OC)cc1)C(=O)Cn1nnc2ccccc21 (centres undefined)	18.0%	-0.3	-0.1	-0.9	-0.8	11.3
CCOC(=O)Cc1csc(NC(=O)Cc2cccs2)n1	·	-0.2	0.4	-0.1	1.6	14.4
CCc1ccc(C(=O)c2cnc3ccc(C)cc3c2S(=O)(=O)c2ccc(OC)cc2)cc1	0.0%	·	2.5	·	·	-11.9
COc1cc(NC(=S)NC(C)(C)C)c(OC)cc1Cl	3.0%	-2.4	-0.3	-1.7	-5.4	-6.6
O=S(=O)(c1ccccc1)C1Cc2ccccc2C1Cl (centres undefined)	3.2%	-15.6	-0.9	5.1	-1.5	7.0
CCC(=O)N1N=C(c2ccc(OC)cc2)CC1c1cn(-c2ccccc2)nc1-c1cccs1 (centres undefined)	9.6%	·	1.0	·	·	35.3
O=S1(=O)CC(O)C(N(CCO)C(=S)Nc2ccccc2)C1 (centres undefined)	1.1%	8.1	0.7	6.4	-18.9	24.4
COC(c1ccccc1)(c1ccccc1)C(Oc1nccc(C)n1)C(=O)O (centres undefined)	-0.4%	6.4	0.1	3.2	-1.0	14.1
CC(=O)Nc1ccc(S(=O)(=O)N2CCC(C(N)=O)(N3CCCCC3)CC2)cc1	-0.1%	17.3	0.6	0.0	-2.2	0.9
CCCC(=O)Nc1ccc(Cl)c(NC(=O)C(C)(C)C)c1	?	4.3	1.2	3.4	-3.2	-2.9
CSc1ccc(NC(=O)Nc2cccn(Cc3ccccc3F)c2=O)cc1	0.5%	-29.3	6.3	·	-0.5	-12.2
Cc1cc(=O)oc2cc(OCC(=O)N3CCN(c4ccccc4)CC3)c(Cl)cc12	1.2%	1.2	-0.9	8.1	-2.2	-4.0
